Screening results as filed in PubChem BioAssay.
KCNQ2 pot = potentiators of rat KCNQ2 potassium channel. AID 2239, 2010. CHO-K1 KCNQ2, FluxOR thallium flux fluorescence; hits give high values. 310,000 tested, 0.54% active. B-score at 10 µM. Potassium voltage-gated channel subfamily KQT member 2 (Rattus norvegicus), O88943;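 active means fluorescence ratio B-score at least 3 SD of library B-scores, with initial fluorescence B-score within 3 SD, cut at about 5.3 in these data; same plate scores as AID 2156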;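 further: B-score of peak minus minimum over baseline fluorescence ratio after K+ and Tl+ stimulus; positive B-score means potentiation of KCNQ2 with more thallium influx and brighter signal; only the inactives scoring about 0 or higher are listed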
Target sequence (O88943 whole entry, looked up): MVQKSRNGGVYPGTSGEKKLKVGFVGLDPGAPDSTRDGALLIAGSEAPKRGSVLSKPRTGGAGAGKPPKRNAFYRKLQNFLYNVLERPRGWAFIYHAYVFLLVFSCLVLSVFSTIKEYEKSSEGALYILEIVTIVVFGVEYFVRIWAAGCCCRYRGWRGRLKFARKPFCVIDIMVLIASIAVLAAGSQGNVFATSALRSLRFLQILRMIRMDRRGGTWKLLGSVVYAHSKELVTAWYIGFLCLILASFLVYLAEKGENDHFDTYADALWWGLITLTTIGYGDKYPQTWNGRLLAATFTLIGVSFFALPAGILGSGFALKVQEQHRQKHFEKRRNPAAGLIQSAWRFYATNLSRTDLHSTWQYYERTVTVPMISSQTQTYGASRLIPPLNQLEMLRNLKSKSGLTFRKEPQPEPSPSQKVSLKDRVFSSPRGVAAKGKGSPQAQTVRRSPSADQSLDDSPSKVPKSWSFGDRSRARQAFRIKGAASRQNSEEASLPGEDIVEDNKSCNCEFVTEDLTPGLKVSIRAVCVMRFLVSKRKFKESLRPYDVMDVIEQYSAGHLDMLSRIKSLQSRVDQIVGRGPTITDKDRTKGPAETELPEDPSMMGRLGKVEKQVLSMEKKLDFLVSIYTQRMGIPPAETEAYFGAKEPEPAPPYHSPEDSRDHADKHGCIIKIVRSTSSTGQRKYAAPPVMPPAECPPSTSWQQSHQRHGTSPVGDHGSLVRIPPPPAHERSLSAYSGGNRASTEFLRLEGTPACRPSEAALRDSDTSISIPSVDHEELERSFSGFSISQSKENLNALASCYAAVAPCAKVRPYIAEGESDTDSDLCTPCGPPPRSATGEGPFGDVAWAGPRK
KCNQ2 pot baseline = further read-out of KCNQ2 pot, marked with its call; B-score; compound at 10 µM; measured here: initial fluorescence intensity artifact check;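 brightness before thallium and not channel activity; 0 = typical well and far values either way flag optical interference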
* hit, by the source's call.

Below each compound: KCNQ2 pot baseline, KCNQ2 pot
1: Cc1noc(C)c1S(=O)(=O)NCCCN1CCN(Cc2ccccc2)CC1
 : 0.58, 2.5
2: COc1ccc(Nc2nnc(Cc3ccncc3)c3ccccc23)c(OC)c1
 : -0.26, 0.47
3: CCOC(=O)c1ccc(N2C(=O)CC(Sc3nc(C)cc(C)n3)C2=O)cc1 (configuration not stated)
 : -0.4, 0.45
4: C[C@H](NC(=O)c1cc2cc(Cl)ccc2n1C)C(=O)N[C@@H](C(=O)O)c1ccccc1
 : -1.4, 0.78
5: CCN(CC(=O)Nc1ccc2c(c1)OCCO2)C(=O)c1ccc(C(F)(F)F)cc1
 : -0.17, 0.55
6: O=c1[nH]c(SCc2ccccc2F)nc2ccccc12
 : 1.1, 0.04
7: O=C(Nc1ccon1)Nc1cccc(Cl)c1Cl
 : -0.55, 2.2
8: O=C(NCCc1cccc(F)c1)/C(=C/c1cccnc1)NC(=O)c1ccccc1
 : 0.83, 1.2
9: Cc1c(NCc2nc3ccccc3[nH]2)c(=O)n(-c2ccccc2)n1C
 : -0.04, 0.82
10: COc1cc(/C=N/Nc2ncc(C(F)(F)F)cc2Cl)cc(OC)c1O
 : 0.1, 0.65
11: COC(=O)c1ccc(S(=O)(=O)N2Cc3ccccc3C2)cc1
 : -0.33, 1.5
12: C/C=C/c1ccc(OCCCCN2CC(C)CC(C)C2)c(OC)c1 (configuration not stated)
 : 0.04, 0.46
13: CS(=O)(=O)Nc1ccc(S(=O)(=O)N2CCCCCC2)cc1
 : -2.4, 0.63
14: Cc1ccnc(Nc2nc(-c3sc(C)nc3C)cs2)c1
 : -0.43, 2.9
15: CNC(=S)N1CCN=C1Nc1nc(C)cc(C)n1
 : -0.59, 1.1
16: CC(C)Cc1nnc(NC(=O)c2cc3c(s2)CCC3)s1
 : 0.18, 0.05
17: CCOC(=O)c1sc(C)c2c(=O)n(CC)nnc12
 : 0.43, 0.82
18: CCOC(=O)c1oc2ccc(CNC(C)(C)C)c(Cl)c2c1C
 : -0.04, 0.57
19: Cc1nn(Cc2ccc(Cl)cc2)c(C)c1NC(=O)CSc1nc2c(c(C(F)(F)F)n1)CCc1ccccc1-2
 : -1.3, 2
20: CC(=C\C(=O)O)/C(=C/c1ccco1)C(=O)O
 : 1.7, 0.91
21: O=C(NC1CCCCNC1=O)c1ccco1 (configuration not stated)
 : -0.9, 0.7
22: COCc1nnc(NC(=O)CSc2ccc(C)cc2)s1
 : -0.18, 0.85
23: COc1ccc(OC)c(CN2CCN(C(=O)c3ccco3)CC2)c1
 : 0.96, 0.25
24: CCOC(=O)c1sc(NC(C)=O)nc1C
 : 0.3, 0.01
25: CCOC(=O)Cc1csc(NC(=S)NC(=O)c2cccc([N+](=O)[O-])c2)n1
 : -1.3, 2.1
26: COc1cccc(C(=O)NNC(=O)CCC(=O)O)c1
 : -0.3, 0.54
27: CCc1ccccc1NC(=O)CN(C)C(=O)Cn1cc(C(F)(F)F)cc(Cl)c1=O
 : 0.59, 1.4
28: CN1CCN(C(=S)SCC(=O)N2CCCc3ccccc32)CC1
 : 0.3, 0.46
29: Cc1ccnc(N2CCC(C(=O)NNC(=O)c3ccccc3)CC2)n1
 : 0.02, 0.03
30: CCN(CC)S(=O)(=O)c1ccc(NC(=O)c2ccc(Sc3nncn3C)c([N+](=O)[O-])c2)cc1
 : 0.08, 0.02
31: COC(=O)CC1COc2ccccc2N1C(=O)c1ccc(OC)cc1 (configuration not stated)
 : -0.28, 0.01
32: NC(=O)CCN1CCN(C(=O)c2ccc3nc(Cc4cccc(Cl)c4)oc3c2)CC1
 : 0.49, 0.72
33: N#Cc1c(-c2ccccc2)nc(SCC(=O)N2c3ccccc3Sc3ccccc32)[nH]c1=O
 : -0.96, 1.2
34: COc1ccc2c(c1)[nH]c1c(=O)n(/N=C/c3ccc(OC)c(CN4CCCC4)c3)cnc12
 : -1.2, 2.3
35: O=C(N/N=C/c1ccncc1)C1C2CCCCCCC21 (configuration not stated)
 : -2.6, 0.4
36: C=COCCCNc1ncnc2sc(-c3ccccc3)cc12
 : -1.2, 1.7
37: O=C(N/N=C(/c1ccccc1)c1ccncc1)c1ccc2c(c1)OCO2
 : -0.3, 0.84
38: O=C(CN1CCCCCC1)Nc1ccc(Br)cc1
 : 0.97, 0.73
39: Nc1ncn(C23CC4CC(CC(C4)C2)C3)n1
 : -0.34, 1.9
40: Cc1ccc(C(=O)NC(=S)N(C)C2CCCCC2)cc1Br
 : -1.9, 3.2
41: O=C(NCCn1cc(SCC(=O)N2CCOCC2)c2ccccc21)c1c(F)cccc1F
 : -1.1, 0.91
42: O=C(NNS(=O)(=O)c1ccc(F)cc1)c1ccccc1O
 : 0.36, 0.01
43: CC1(C)Cc2c(C#N)c(NCCO)nc(-c3ccco3)c2CO1
 : 0, 0.44
44: Nc1nc(NCc2ccccc2)nc(-c2ccccc2)n1
 : -1.2, 1.4
45: O=C(NC1CCCCC1)c1ccc2c(=O)n(CC3CCCO3)c(=O)[nH]c2c1 (configuration not stated)
 : -1.1, 0.6
46: O=C(CCN1C(=O)C2C3C=CC(C4CC34)C2C1=O)Oc1cccc2cccnc12 (configuration not stated)
 : 0.06, 2.2
47: CCN(CC)C(=O)Cn1cc(S(=O)(=O)CC(=O)Nc2ccc3c(c2)OCCO3)c2ccccc21
 : 0.73, 0.46
48: COc1ccc(CN2CCN(c3ccccn3)CC2)c(OC)c1
 : 0, 0.53
49: COc1ccc2c(c1OC)C(=O)OC2Nc1ccccc1S(=O)(=O)C(F)F (configuration not stated)
 : 1.9, 0.02
50: CCc1nn(CC(=O)NCCCc2ccccc2)c(=O)c2cc3cc(F)ccc3n12
 : -0.36, 1.1
51: CN(C)C(CNC(=O)NC1CCCCC1)c1cccnc1 (configuration not stated)
 : 0.02, 0.03
52: COc1ccccc1C(=O)N/C(=C\c1ccccc1)C(=O)NC(C)C(=O)O (configuration not stated)
 : -0.92, 2.9
53: Cc1cc(C)c([N+](=O)[O-])cc1-c1ccc(/C=N/NC(=O)c2nonc2N)o1
 : -1.4, 0.65
54: Cc1nc2nc(-c3cccnc3)[nH]n2c(=O)c1Cc1ccccc1
 : 1, 0.06
55: OCC1CCCN(c2ncnc3scc(-c4ccccc4)c23)C1 (configuration not stated)
 : 1, 0.17
56: CCOC(=O)N1CCN(C(=O)c2ccc(N3C(=O)c4ccccc4C3=O)cc2)CC1
 : -1.4, 0.2
57: CCN(CC)C(=O)C(=O)c1ccn(-c2c(C)csc2C(=O)OC)c1
 : 0.55, 0.62
58: C=CCn1c(SCC(=O)Nc2ccc(Br)cc2)nc(O)c(CC)c1=O
 : 0.28, 0.13
59: CC(C)CC(NC(N)=O)C(=O)OCC(=O)Nc1ccc(SC(F)F)cc1 (configuration not stated)
 : 0.57, 0.07
60: CCCCn1c(N)c(N(CCOC)C(=O)c2cccc(S(=O)(=O)N(C)c3ccc(C)cc3)c2)c(=O)[nH]c1=O
 : -0.76, 0.08

The listing continues.
Below each compound: KCNQ2 pot baseline, KCNQ2 pot
61: COc1ccc(C(C)=O)cc1COc1ccc(Cl)cc1Cl
 : 0.37, 0.72
62: CCc1nc(-c2ccc(-c3ccc(OC)cc3)nc2OC)no1
 : 0.55, 0.39
63: COc1ccc(Cn2c(=O)[nH]c3cc(C(=O)N4CCN(c5ccc(C(C)=O)cc5)CC4)ccc3c2=O)cc1
 : -0.77, 0.55
64: Cc1cccc(CC2CC(=O)N(c3ccc([N+](=O)[O-])cc3)C2=O)c1 (configuration not stated)
 : -2.5, 0.77
65: C=C[C@@]1(C)CC(=O)[C@]2(O)[C@@]3(C)[C@@H](O)CCC(C)(C)[C@@H]3[C@H](OC(C)=O)[C@H](O)[C@@]2(C)O1
 : -0.89, 5.1
66: O=C(O)CCCCCCNC(=O)c1cncc(O)c1
 : 0.5, 0.74
67: CCCCOc1cccc(/C=N/NC(=O)c2csc(C)c2C)c1
 : -0.74, 1.5
68: O=c1cc(O)c(-c2ccccc2)c(Cl)[nH]1
 : -0.67, 0.74
69: COc1cc(Cl)ccc1NC(=S)N(CCN(C)C)C(C)c1ccncc1 (configuration not stated)
 : 0.02, 0.12
70: CCN1CCc2c(OCc3ccccc3)cccc2C1=O
 : 0.16, 3
71: CCCOc1ccc(NC(=O)CC2C(=O)N(C)C(=S)N2Cc2ccc3c(c2)OCO3)cc1 (configuration not stated)
 : -0.9, 0.36
72: O=C(O)c1cn(C2CCCCC2)c2ccccc2c1=O
 : -2.2, 2.9
73: CCn1cc(C(=O)N[C@@H](CCSC)C(=O)NC(C)(C)CO)c(=O)c2cc3c(cc21)OCO3
 : 1.6, 0.66
74: CCOC(=O)c1ccc[n+](C(C)C(=O)c2ccc(-c3ccccc3)cc2)c1 (configuration not stated)
 : -1.3, 1.6
75: COc1ccc(-c2csc(NC(=O)CCS(=O)(=O)c3ccccc3)n2)c(OC)c1
 : 1.2, 1

Arranged by the number under KCNQ2 pot baseline (falling): 4 from the list above.
Below each compound: KCNQ2 pot baseline, KCNQ2 pot
66: O=C(O)CCCCCCNC(=O)c1cncc(O)c1
 : 0.5, 0.74
69: COc1cc(Cl)ccc1NC(=S)N(CCN(C)C)C(C)c1ccncc1 (configuration not stated)
 : 0.02, 0.12
68: O=c1cc(O)c(-c2ccccc2)c(Cl)[nH]1
 : -0.67, 0.74
72: O=C(O)c1cn(C2CCCCC2)c2ccccc2c1=O
 : -2.2, 2.9

New compounds follow
Below each compound: KCNQ2 pot baseline, KCNQ2 pot
76: O=C(CCS(=O)(=O)c1ccccc1)Nc1nnc(-c2ccco2)o1
 : 0.02, 2
77: CN(C)/C=C/c1c(C#N)c(=O)ncn1Cc1ccccc1
 : -0.65, 0.18
78: COc1ccc(OCCOC(=O)CNC(=O)c2ccc(C)cc2)cc1
 : 0.26, 0.94
79: CCOC(=O)c1sc(NC(=O)/C=C/c2cnn(C)c2C)c(C(=O)OC(C)C)c1C
 : -0.52, 0.24
80: Cc1ccc(CNC(=O)c2cc(S(=O)(=O)N3CCOCC3)cn2C)cc1
 : -1.7, 1.7
81: CC(C)(C)c1[nH]ncc1[N+](=O)[O-]
 : 0.02, 1.6
82: CCCCN(C(=O)c1ccco1)c1nnc(-c2cc(OC)c(OC)c(OC)c2)s1
 : 0.44, 0.04
83: CC(=O)N/C(=C/c1ccc2c(c1)OCO2)C(=O)NCc1ccccc1
 : -0.04, 1.2
84: CCNC(=S)NCc1ccc(F)cc1
 : 0.45, 0.77
85: CCC1=C(OC(=O)N(CC)CC)N2C(=O)OC(=NCC3CC3)[C@]2(Cc2ccccc2)[C@H]2C1=CC[C@H]1C(=O)N(C)C(=O)[C@H]12
 : -1.1, 0.03
86: Brc1cc(/C=N/n2cnnc2)oc1Br
 : 0.75, 0.41
87: CCOc1ccc(NC(=O)CN(C)C(=O)CCCn2c(=O)oc3ccccc32)cc1OCC
 : 0.14, 0.11
88: CCOc1cccc(NC(=O)c2ccc(S(=O)(=O)N3CCCC3)cc2)c1
 : -2.1, 0.01
89: COc1ccc(S(=O)(=O)N(C)CC(=O)Nc2ccc(C(N)=O)cc2)cc1OC
 : 0.25, 0.98
90: CCN(CC)S(=O)(=O)c1cccc(-c2nnc(SCC(=O)NC)n2N)c1
 : 0.92, 0.41
91: COc1ccccc1NC(=O)Nc1ccc(CC#N)cc1
 : 1.2, 0.02
92: CCN(CC)c1ccc(NC(=O)c2ccccc2OCC(=O)OC)cc1
 : -0.27, 0.27
93: COc1ccc(OC)c(/C=N/NC(=O)C(=O)NCc2cccnc2)c1
 : -1.9, 0.18
94: COc1cccc(O)c1CN1CCC(n2nccc2NC(=O)c2ccc3c(c2)OCO3)CC1
 : -0.61, 0.63
95: Cc1cc(C)nc(SCC(=O)N(C)C)n1
 : -0.25, 0.17
96: CNS(=O)(=O)c1cn(CC(=O)NCc2ccccc2OC)cc1S(=O)(=O)NC
 : -0.18, 1.1
97: COc1ccc(N2CCN(Cc3nc4scc(-c5ccccc5)c4c(=O)[nH]3)CC2)cc1
 : 1.2, 0.03
98: Cc1ccc(C(=O)c2sc(Nc3ccccc3)c(C#N)c2N)cc1
 : -0.93, 0.97
99: COC(=O)C1=C(C)NC(=O)NC1c1ccccc1 (configuration not stated)
 : -1.6, 0.18
100: COc1ccc(OC)c(C2C3=C(CCCC3=O)NC3=C2C(=O)CCC3)c1
 : 1.3, 0.38
101: Cc1cc(C)c2nc(-c3ccccn3)cc(C(=O)NCc3ccco3)c2c1
 : -0.61, 1.7
102: O=S1(=O)CCO[C@H]2Cc3ccccc3[C@H]2N1Cc1ccccc1Br
 : 0.05, 0.71
103: Cc1ccc(C(=O)NNC(=O)CCCN2C(=O)/C(=C/c3ccccc3Cl)SC2=S)cc1
 : -0.6, 0.04
104: FC(F)(F)c1cnc(Nc2ccc(N3CCOCC3)cc2)c(Cl)c1
 : -0.2, 0.96
105: O=C(CCCc1ccccc1)NC12CC3CC(CC(C3)C1)C2
 : -1.3, 1.8
106: Cn1c(C(=O)O)c(CC(=O)Nc2ccc(F)cc2F)c2ccccc21
 : -2.2, 0.32
107: Cc1ccc(S(=O)(=O)N2C(=O)CCC2C(N)=O)cc1 (configuration not stated)
 : -0.66, 0.84
108: Cc1cc(C)n2c(SCC(=O)Nc3ccccc3)nnc2n1
 : 0.03, 1.1
109: CCOC(=O)c1sc(NC(=O)Cn2nnc3sc4c(c3c2=O)CCCC4)nc1C
 : -0.26, 0.33
110: COc1ccc(NC(=O)CN(C)C(=O)c2ccc(N3CCOCC3)c([N+](=O)[O-])c2)cc1
 : 0.78, 0.12
111: O=C(NCCOc1ccccc1)c1cc(S(=O)(=O)N2CCOCC2)ccc1F
 : -1.5, 3.2

Complete entries, quoted from the list.
Listed for C=COCCCNc1ncnc2sc(-c3ccccc3)cc12 : KCNQ2 pot baseline: -1.2; KCNQ2 pot: 1.7
Listed for CCCCN(C(=O)c1ccco1)c1nnc(-c2cc(OC)c(OC)c(OC)c2)s1 : KCNQ2 pot baseline: 0.44; KCNQ2 pot: 0.04

These rows are one share of the data. The share of hits here may be higher or lower than overall.
